Screening results deposited in PubChem BioAssay by Broad Institute.
Env fusion inh – blocks HIV Env-driven cell-cell fusion | hit rate 1.1% among 360,000 | inhibition, % at 12.3 µM | HeLa-JRFL Env/CEM21 cell fusion, luciferase;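 active = mean replicate inhibition score of at least 50 and every replicate individually at or above 50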;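 also: 0% = plate neutral controls and 100% = maraviroc near 300 nM; one replicate is shown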
UUG fidelity – alters start codon recognition fidelity in yeast; S. cerevisiae UUG-firefly luciferase reporter, luminescence/redox ratio; hit rate 0.13% among 350,000; activity score, % at 18.7 µM;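 active = replicate mean at a twofold rise or more, about +100% in these data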;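 also: firefly luciferase made from a UUG start codon reports start codon fidelity; reporter light over untreated wells divided by growth signal over untreated wells; some hits fall short of that in this replicate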
An asterisk follows results filed as active; [ ] = dose if it differs, or a comment.

1. O=C(C[C@H]1CC[C@@H](NC(=O)CC2CC2)[C@@H](CO)O1)NCC(F)(F)F
2. [N-]=[N+]=NCc1ccccc1C[C@]1(C(=O)N2CCOCC2)COC(c2ccc(OCCCO)cc2)=N1
3. Cc1ccc(S(=O)(=O)Nc2ccc3c(c2)C(=O)N([C@H](C)CO)C[C@@H](C)[C@@H](CN(C)Cc2ccc4c(c2)OCO4)OCCCC[C@@H](C)O3)cc1
4. C[C@@H]1CCCCO[C@@H](CN(C)C(=O)Nc2cccc3ccccc23)[C@@H](C)CN([C@@H](C)CO)C(=O)c2cc(NC(=O)Nc3cccc4ccccc34)ccc2O1
5. O=C(C[C@H]1CC[C@H]2[C@@H](COC[C@@H](O)CN2C(=O)Nc2ccc(F)cc2)O1)NCCc1ccccc1
6. C[C@@H]1CCCCO[C@H](CN(C)Cc2ccccc2)[C@@H](C)CN([C@@H](C)CO)C(=O)c2cc(NC(=O)NC3CCCCC3)ccc2O1

Assay by compound	1	2	3	4	5	6
Env fusion inh	-4[16.7 µM]	1[16.7 µM]	13[16.7 µM]	-71[16.7 µM]	-5[16.7 µM]	5[16.7 µM]
UUG fidelity	-14	-3	23	-13	-13	15

7. C[C@H](CO)N1C[C@H](C)[C@H](CN(C)Cc2ccc(Oc3ccccc3)cc2)Oc2ccc(NC(=O)Cc3cn(C)c4ccccc34)cc2CC1=O
8. C[C@@H]1CCCCO[C@@H](CN(C)C)[C@@H](C)CN([C@H](C)CO)C(=O)c2cc(NC(=O)c3ccncc3)ccc2O1
9. C[C@@H]1CN([C@@H](C)CO)C(=O)Cc2cc(NS(=O)(=O)c3cccs3)ccc2O[C@@H]1CN(C)Cc1ccncc1
10. C[C@@H]1CCCCO[C@H](CN(C)Cc2ccc(C(=O)O)cc2)[C@@H](C)CN([C@@H](C)CO)C(=O)c2cc(NC(=O)Nc3ccccc3)ccc2O1
11. COc1ccc(CN(C)C[C@@H]2OCCCC[C@H](C)Oc3ccc(NC(=O)Nc4cccc5ccccc45)cc3C(=O)N([C@@H](C)CO)C[C@@H]2C)cc1
12. C[C@H](NC(=O)C[C@@H]1CC[C@@H]2[C@H](COC[C@H](O)CN2Cc2cc(F)ccc2F)O1)c1ccccc1

Assay by compound	7	8	9	10	11	12
Env fusion inh	-4[16.7 µM]	-60[16.7 µM]	-14[16.7 µM]	-25[16.7 µM]	24[16.7 µM]	-5[16.7 µM]
UUG fidelity	-5	-10	-11	9	20	-6

13. C[C@@H]1CCCCO[C@@H](CN(C)C(=O)c2ccncc2)[C@@H](C)CN([C@H](C)CO)C(=O)c2cc(NC(=O)CCC(F)(F)F)ccc2O1
14. COc1cccc(S(=O)(=O)N(C)C[C@H]2Oc3cc(C#CCN(C)C)ccc3S(=O)(=O)N([C@H](C)CO)C[C@@H]2C)c1
15. C[C@@H]1CN([C@H](C)CO)C(=O)c2cc(NC(=O)C3CCCCC3)ccc2O[C@@H](C)CCCCO[C@@H]1CN(C)C(=O)C1CCCCC1
16. C[C@@H]1CN([C@@H](C)CO)C(=O)Cc2cc(NS(=O)(=O)c3cccs3)ccc2O[C@H]1CN(C)C(=O)Nc1cccc2ccccc12
17. C[C@H]1CN([C@@H](C)CO)S(=O)(=O)c2ccc(-c3ccccc3)cc2O[C@H]1CN(C)C(=O)c1ccccc1F
18. CCCNC(=O)Nc1ccc2c(c1)C(=O)N(C)[C@H]1CC[C@H](CC(=O)NCC3CCCCC3)O[C@@H]1CO2

Assay by compound	13	14	15	16	17	18
Env fusion inh	-12[16.7 µM]	0[16.7 µM]	-20[16.7 µM]	-8[16.7 µM]	20[16.7 µM]	3[16.7 µM]
UUG fidelity	-11	14	15	17	2	-2

19. COc1ccc(S(=O)(=O)Nc2ccc3c(c2)CC(=O)N([C@@H](C)CO)C[C@H](C)[C@H](CN(C)C(=O)Nc2ccc(F)cc2)O3)cc1
20. COc1ccccc1CNC(=O)C[C@H]1CC[C@@H]2[C@H](COc3ccc(NC(C)=O)cc3C(=O)N2C)O1
21. COc1ccc(NC(=O)Nc2ccc3c(c2)C(=O)N([C@@H](C)CO)C[C@H](C)[C@H](CN(C)C(=O)Cc2ccccc2)OCCCC[C@@H](C)O3)cc1
22. Cc1ccccc1S(=O)(=O)N[C@@H]1CC[C@H](CCn2cc(-c3ccccc3)nn2)O[C@@H]1CO
23. C[C@H]1CN([C@@H](C)CO)C(=O)c2cc(NC(=O)Nc3ccc4c(c3)OCO4)ccc2O[C@H]1CN(C)C(=O)Nc1ccccc1
24. CC(C)CC#Cc1ccc2c(c1)O[C@H](CN(C)C(=O)Cc1ccccc1)[C@H](C)CN([C@H](C)CO)S2(=O)=O

Assay by compound	19	20	21	22	23	24
Env fusion inh	-45[16.7 µM]	-7[16.7 µM]	-4[16.7 µM]	8[16.7 µM]	26[16.7 µM]	-20[16.7 µM]
UUG fidelity	8	3	34	-1	14	-8

25. C/C=C/c1cnc2c(c1)C(=O)N([C@H](C)CO)C[C@@H](C)[C@H](CN(C)S(=O)(=O)c1ccc(OC)cc1)O2
26. COc1ccccc1NC(=O)N[C@H]1CC[C@@H](CCn2cc(-c3ccccc3OC)nn2)O[C@H]1CO
27. CN1C(=O)c2cc(NC(=O)c3cnccn3)ccc2OC[C@@H]2O[C@H](CC(=O)O)CC[C@@H]21
28. CCNC(=O)C[C@H]1CC[C@H]2[C@H](COc3ccc(NS(C)(=O)=O)cc3C(=O)N2C)O1
29. C[C@@H]1CN([C@H](C)CO)C(=O)c2cc(/C=C/c3ccccc3)cnc2O[C@@H]1CN(C)S(=O)(=O)c1ccccc1
30. C[C@H]1CN([C@@H](C)CO)C(=O)c2cccc(NS(=O)(=O)c3ccc(F)cc3)c2O[C@H]1CN(C)C(=O)Nc1ccc(C(F)(F)F)cc1

Assay by compound	25	26	27	28	29	30
Env fusion inh	-2[16.7 µM]	10[16.7 µM]	-26[16.7 µM]	-7[16.7 µM]	0[16.7 µM]	-12[16.7 µM]
UUG fidelity	-9	-4	-6	1	2	8

31. C[C@@H]1CN([C@@H](C)CO)C(=O)c2cc(C#Cc3ccccc3F)cnc2O[C@H]1CN(C)C(=O)C1CCOCC1
32. O=C(Cc1ccccn1)NCC[C@H]1CC[C@H](NS(=O)(=O)c2ccc(Cl)cc2)[C@H](CO)O1
33. C[C@H]1CCCCO[C@@H](CN(C)C(=O)CCCN(C)C)[C@@H](C)CN([C@@H](C)CO)C(=O)c2cc(NC(=O)CCC(F)(F)F)ccc2O1
34. C[C@@H]1CCCCO[C@H](CN(C)C(=O)Nc2ccc(F)cc2)[C@H](C)CN([C@@H](C)CO)C(=O)c2cc(NC(=O)Cc3ccccc3)ccc2O1
35. COc1ccc(-c2cnc3c(c2)C(=O)N([C@H](C)CO)C[C@@H](C)[C@H](CN(C)Cc2ccccn2)O3)cc1
36. COCC(=O)Nc1ccc2c(c1)C(=O)N(C)[C@H]1CC[C@H](CC(=O)NCc3ccc(OC)cc3)O[C@@H]1CO2

Assay by compound	31	32	33	34	35	36
Env fusion inh	-26[16.7 µM]	15[16.7 µM]	9[16.7 µM]	-65[16.7 µM]	-6[16.7 µM]	-10[16.7 µM]
UUG fidelity	3	-5	-2	-7	-35	-11

37. C[C@H](CO)N1C[C@H](C)[C@H](CN(C)C(=O)Nc2cccc3ccccc23)Oc2ccc(NC(=O)C3CCCCC3)cc2C1=O
38. Cc1ccccc1-c1ccc2c(c1)O[C@H](CN(C)C)[C@H](C)CN([C@H](C)CO)S2(=O)=O
39. COc1ccc(S(=O)(=O)N(C)C[C@H]2OCCCC[C@@H](C)Oc3ccc(NC(=O)NC4CCCCC4)cc3C(=O)N([C@H](C)CO)C[C@@H]2C)cc1
40. COc1ccc(NC(=O)N(C)C[C@@H]2Oc3cc(C#CCN(C)C)ccc3S(=O)(=O)N([C@@H](C)CO)C[C@H]2C)cc1
41. COc1ccc(S(=O)(=O)N(C)C[C@H]2Oc3ccc(NC(=O)Nc4c(C)noc4C)cc3CC(=O)N([C@H](C)CO)C[C@@H]2C)cc1
42. CCCNC(=O)C[C@@H]1C[C@H]2c3cc(NS(=O)(=O)c4ccc(OC)cc4)ccc3O[C@H]2[C@H](CO)O1

Assay by compound	37	38	39	40	41	42
Env fusion inh	-9[16.7 µM]	-15[16.7 µM]	7[16.7 µM]	-17[16.7 µM]	-9[16.7 µM]	-30[16.7 µM]
UUG fidelity	3	43	-13	11	-1	-13

43. Cc1noc(C)c1NC(=O)N(C)C[C@H]1Oc2ccc(N(C)C)cc2C(=O)N([C@H](C)CO)C[C@H]1C
44. C[C@H](CO)N1C[C@H](C)[C@@H](CN(C)C(=O)NC2CCCCC2)OCCCC[C@H](C)Oc2ccc(NS(=O)(=O)c3cn(C)cn3)cc2C1=O
45. C/C=C/c1cnc2c(c1)C(=O)N([C@H](C)CO)C[C@@H](C)[C@@H](CN(C)C(=O)Nc1cccc(OC)c1)O2
46. CN1C(=O)c2cc(NC(=O)C3CCOCC3)ccc2OC[C@@H]2O[C@@H](CC(=O)O)CC[C@H]21
47. CNC[C@H]1Oc2ccc(NS(=O)(=O)c3cccs3)cc2CC(=O)N([C@H](C)CO)C[C@@H]1C
48. COc1ccc(NC(=O)Nc2ccc3c(c2)CC(=O)N([C@H](C)CO)C[C@H](C)[C@H](CN(C)S(=O)(=O)c2ccc(F)cc2)O3)cc1

Assay by compound	43	44	45	46	47	48
Env fusion inh	20[16.7 µM]	41[16.7 µM]	23[16.7 µM]	-4[16.7 µM]	-15[16.7 µM]	19[16.7 µM]
UUG fidelity	-7	-3	18	-13	5	5

49. CN(C)CC(=O)Nc1ccc2c(c1)[C@H]1C[C@H](CC(=O)NCc3ccccn3)O[C@@H](CO)[C@H]1O2
50. Cc1noc(C)c1NC(=O)NCC[C@H]1CC[C@@H](NC(=O)Nc2cccc(F)c2)[C@H](CO)O1
51. N#C[C@@H]1[C@@H](c2ccc(C#Cc3ccccc3F)cc2)[C@H](CO)N1C(=O)C1CCCCC1
52. COc1ccc(S(=O)(=O)N(C)C[C@@H]2OCCCC[C@H](C)Oc3ccc(NC(=O)Nc4c(C)noc4C)cc3C(=O)N([C@@H](C)CO)C[C@H]2C)cc1
53. C[C@@H]1CN([C@H](C)CO)C(=O)c2cc(NC(=O)C3CCCCC3)ccc2O[C@@H](C)CCCCO[C@@H]1CN(C)S(=O)(=O)c1ccc(Cl)cc1
54. CC(C)C#Cc1ccc2c(c1)O[C@@H](CN(C)C(=O)C1CCCCC1)[C@H](C)CN([C@H](C)CO)S2(=O)=O

Assay by compound	49	50	51	52	53	54
Env fusion inh	-9[16.7 µM]	10[16.7 µM]	0[16.7 µM]	22[16.7 µM]	7[16.7 µM]	58*[16.7 µM]
UUG fidelity	-21	6	-7	10	-6	8

Grouped by structure, the entries above with a thiophene ring, fused or not.
9. C[C@@H]1CN([C@@H](C)CO)C(=O)Cc2cc(NS(=O)(=O)c3cccs3)ccc2O[C@@H]1CN(C)Cc1ccncc1
16. C[C@@H]1CN([C@@H](C)CO)C(=O)Cc2cc(NS(=O)(=O)c3cccs3)ccc2O[C@H]1CN(C)C(=O)Nc1cccc2ccccc12
47. CNC[C@H]1Oc2ccc(NS(=O)(=O)c3cccs3)cc2CC(=O)N([C@H](C)CO)C[C@@H]1C

Assay by compound	9	16	47
Env fusion inh	-14[16.7 µM]	-8[16.7 µM]	-15[16.7 µM]
UUG fidelity	-11	17	5

Continued:
55. C[C@@H]1CCCCO[C@@H](CN(C)C(=O)Nc2ccc(F)cc2)[C@H](C)CN([C@@H](C)CO)C(=O)c2cc(NC(=O)c3ccccc3)ccc2O1
56. CN(C)C(=O)c1cccc(-c2ccc([C@@H]3[C@@H](CO)N(C(=O)C4CCCCC4)[C@H]3C#N)cc2)c1
57. C[C@@H]1CN([C@@H](C)CO)C(=O)c2cc(-c3cccnc3)cnc2O[C@@H]1CN(C)C(=O)NC1CCCC1
58. C[C@H]1CN([C@@H](C)CO)C(=O)Cc2cc(NC(=O)CCC(F)(F)F)ccc2O[C@@H]1CN(C)C(=O)Nc1ccc2c(c1)OCO2
59. Cc1ccccc1S(=O)(=O)N(C)C[C@@H]1OCc2cn(nn2)CCCC(=O)N([C@@H](C)CO)C[C@@H]1C
60. O=C(NCC[C@@H]1CC[C@@H](NC(=O)C2CC2)[C@H](CO)O1)Nc1ccc(Cl)cc1

Assay by compound	55	56	57	58	59	60
Env fusion inh	-53[16.7 µM]	-9[16.7 µM]	-19[16.7 µM]	-5[16.7 µM]	-5[16.7 µM]	-2[16.7 µM]
UUG fidelity	10	-1	-4	-1	3	-6

61. CC(C)NC(=O)N(C)C[C@@H]1Oc2cc(C3=CCCCC3)ccc2S(=O)(=O)N([C@H](C)CO)C[C@@H]1C
62. CNC[C@@H]1Oc2ccc(NC(=O)CCN3CCOCC3)cc2CC(=O)N([C@@H](C)CO)C[C@@H]1C
63. C/C=C/c1ccc2c(c1)O[C@H](CN(C)C(=O)CC)[C@@H](C)CN([C@@H](C)CO)S2(=O)=O
64. COc1ccccc1NC(=O)N(C)C[C@H]1OCc2cn(nn2)CCCC(=O)N([C@H](C)CO)C[C@@H]1C
65. COc1cccc(C(=O)Nc2ccc3c(c2)OC[C@@H](C)N(C(C)=O)C[C@@H](C)[C@@H](OC)CN(C)C3=O)c1
66. C[C@H]1CN([C@@H](C)CO)C(=O)c2cc(C#CCc3ccccc3)cnc2O[C@H]1CN(C)C(=O)C1CCC1

Assay by compound	61	62	63	64	65	66
Env fusion inh	-5[16.7 µM]	4[16.7 µM]	7[16.7 µM]	-3	-15[16.7 µM]	-6[16.7 µM]
UUG fidelity	3	-9	6	-1	-3	-3

The list is partial; the hit share may differ from the screen's.
